# Source: PubChem BioAssay
# AID923: qHTS Assay for Allosteric/Competitive Inhibitors of Caspase-1: Spectroscopic Profiling in AFC Spectral Region | 75,000 compounds, 1.1% hits | compound fluorescence, AFC spectral region (405/520 nm); almost no hit is shown here | Potency, µM (series often up to 57.5 µM), for inactives: at the top dose fluorescence increase, actives largely listed as activators; active means well fitted activation curve with a large enough effect; inconclusive means small, poorly fitted or top-dose-only effect;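 further: potency means the concentration at half of the fitted maximal effect; 0% is about no effect; scaled to a free AFC standard on each plate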
#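 Titrations up to 57 uM read every 20 sec for 3 min (405/520 nm) with 50 nM caspase 1 and 5 uM Ac-WEHD-AFC, pH 7.5 HEPES buffer. Fluorescence-vs-time intercept gave baseline, scaled against on-plate AFC standard.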
# Resorufin fluor: compound fluoresces in the resorufin spectral region | Compound fluorescence, resorufin region 547/598 nm, buffer; hits give high values | max dye-equivalent concentration, M | 59,000 compounds, 0.04% hits; active = above 10 nM dye equivalent; inconclusive = 1 to 10 nM; inactive = 1 nM or less; a few of its hits are not listed in these tables; further: highest value over a series up to 38 µM
#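 Tris 100 mM pH 8.0; compound added, 15 min RT; CCD imager read, ex 547 nm/em 598 nm; signal normalized to resorufin standard curve (six concentrations per plate) as dye-equivalent concentration.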
# TSHR ag: activates the human thyroid stimulating hormone receptor | HEK293-CNG-TSHR cells (CNG channel as cAMP sensor), membrane potential dye, cAMP | Potency, µM (top dose mostly 57.1 µM), inactives show at the top dose activation, hits mostly activators | 73,000 compounds, 0.48% hits | AID 926; active = well fitted activation curve of enough size with the parental cells flat; inconclusive = any curve in the parental cells; inactive = parental cells flat and receptor cells flat or falling; further: potency means the concentration at half of the fitted maximal effect; % of control where 0% means no effect; weak receptor curves with flat parental cells got no call and are not listed
# Target sequence (P16473 whole entry, looked up): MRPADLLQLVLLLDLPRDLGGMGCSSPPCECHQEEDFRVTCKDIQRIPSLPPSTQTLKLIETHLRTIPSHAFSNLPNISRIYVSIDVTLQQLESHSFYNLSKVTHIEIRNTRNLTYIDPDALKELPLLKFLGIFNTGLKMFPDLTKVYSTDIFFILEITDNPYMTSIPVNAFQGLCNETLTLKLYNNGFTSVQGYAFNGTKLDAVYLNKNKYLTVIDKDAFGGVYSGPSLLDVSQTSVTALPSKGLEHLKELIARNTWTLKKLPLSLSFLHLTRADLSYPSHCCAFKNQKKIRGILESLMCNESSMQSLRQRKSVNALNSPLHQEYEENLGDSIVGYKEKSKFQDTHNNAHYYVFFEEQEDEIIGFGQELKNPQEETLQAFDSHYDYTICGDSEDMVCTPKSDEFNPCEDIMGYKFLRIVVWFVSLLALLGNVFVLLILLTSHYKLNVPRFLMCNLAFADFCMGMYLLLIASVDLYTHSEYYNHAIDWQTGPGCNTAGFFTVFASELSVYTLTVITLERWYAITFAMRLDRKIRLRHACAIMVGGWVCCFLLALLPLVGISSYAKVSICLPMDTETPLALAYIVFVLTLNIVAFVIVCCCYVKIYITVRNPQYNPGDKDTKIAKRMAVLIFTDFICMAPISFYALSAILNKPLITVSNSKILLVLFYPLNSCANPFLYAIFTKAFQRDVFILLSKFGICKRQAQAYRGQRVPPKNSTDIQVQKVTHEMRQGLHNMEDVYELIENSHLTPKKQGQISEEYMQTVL
#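 HEK 293 cells stably expressing TSHR and a cAMP-gated CNG channel; parental CNG-only cells as counterscreen. Cells preloaded 60 min with membrane potential dye plus 100 uM RO 20-1724, then compound 30 min; fluorescence read at 590 nm.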
# A488 autofl: compound autofluorescence in A488 spectral region; max dye equivalency, M; 59,000 compounds, 0.1% hits; compound autofluorescence, A488 spectral region, dye equivalency; hits give high values; AID 591; active = above 10 nM dye equivalent; inconclusive = 1 to 10 nM; inactive = 1 nM or less; about half of its hits are not listed in these tables;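 further: highest value over a series up to 38 µM; compound alone in buffer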
#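 Read-out: relative fluorescence at 480/540 nm, expressed as Alexa 488 dye-equivalent concentration from a six-point A488 standard included per plate. Conditions: 100 mM Tris, pH 8.0; 15 min incubation, room temperature.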
# A647 fluor: compound fluoresces in the A647 spectral region | AID 592 | max dye-equivalent concentration, M | 59,000 tested, under 10 active | Compound fluorescence, A647 channel (570/671 nm), Tris buffer; active means above 1 µM dye equivalent; inconclusive means 0.1 to 1 µM; inactive means 0.1 µM or less;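 further: values scaled relative to a standard on each plate; highest value over a series up to 38 µM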
#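 Buffer was dispensed, compounds and Alexa 647 standards were pin-transferred, and plates sat 15 min at room temperature. Intensity at 570/671 nm was then converted to dye-equivalent concentration using the plate's A647 standard curve.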
# * marks the source's active call; other numbers are inactive results; i = inactive; ? = inconclusive; / = not tested or not shown; & = joins results of further samples; [ ] = remark or other dose. The list is partial. The share of hits here may be higher or lower than overall.
# Each structure is followed by: AID923 | Resorufin fluor | TSHR ag | A488 autofl | A647 fluor
CCNC(=O)[C@@H]1CCCN1C(=O)[C@H](CCCN=C(N)N)NC(=O)[C@H](CC(C)C)NC(=O)[C@@H](CC(C)C)NC(=O)[C@H](Cc1ccc(O)cc1)NC(=O)[C@H](CO)NC(=O)[C@H](Cc1c[nH]c2ccccc12)NC(=O)[C@H](Cc1cnc[nH]1)NC(=O)[C@@H]1CCC(=O)N1
    -1.0% | / | 0.9% | / | /
CCC/C(O)=C1\C(=O)CCCC1=NC(C)C(=O)O (centres undefined)
    7.7% | i | -8.7% | i | 1e-09
CC(=O)N1CCC2(CCN(Cc3nccs3)CC2)CC1
    2.6% | i | ? | i | 1e-09
O/C(=C\Sc1nnc(Cc2ccccc2)o1)c1ccc(Br)cc1
    2.4% | i | -23.3% | i | 1e-09
Cc1[nH]c(C)c(CN(C)C)c1CN(C)C
    2.7%[11.5 µM] | i | 5.5%[11.4 µM] | i | 1.24e-08
NS(=O)(=O)c1ccc(-n2nncc2C23CC4CC(CC(C4)C2)C3)cc1
    -0.8% | i | 6.0% | i | 4.2e-09
O=C(CN1CCN(C(=O)N2CCCCC2)CC1)Nc1ccc(F)cc1
    -1.6% | i | -10.9% | i | 2.75e-08
CCCCN(C(=O)c1ccc(Cl)cc1)C1CC2CCC(C1)N2C (centres undefined)
    1.3% | / | -2.3% | / | /
Cc1ccc(CN2C(=O)CCC2C(=O)NCCCN2CCCCC2C)cc1 (centres undefined)
    2.7% | i | -2.9% | i | 1.6e-09
CC(C)(C)n1nc2c(c1NC(=O)c1ccc(S(=O)(=O)N3CCCC3)cc1)CS(=O)C2 (centres undefined)
    1.2% | i | 0.9% | i | 1.44e-08
NC(=O)CSc1nnc(-c2ccc(S(=O)(=O)N3CCOCC3)cc2)n1Cc1ccccc1
    -1.8% | i | -0.2% | i | 1e-09
CCN(CC)CCCn1c(=S)[nH]c2cc(Cl)ccc2c1=O
    2.1% | i | 4.5% | i | 6.5e-09
Cc1ccc2cc(CN(Cc3cccs3)Cc3nnnn3CC3CCCO3)c(=O)[nH]c2c1C (centres undefined)
    0.4% | i | / | i | 4.67e-08
c1ccc(-c2nnc3n2N=C(c2ccc4c(c2)OCO4)CS3)nc1
    / | i | / | i | 3.3e-08
CCOC(=O)c1[nH]c2ccc(OC)cc2c1N=CN(C)C
    2.2% | i | 4.7% | i | 2e-09
Cc1cccc(OCCCCc2c(C)n[nH]c2C)c1
    1.0% | / | 7.2% | / | /
O=c1[nH]c(NCCO)nc2c1C1(CCCCC1)Cc1ccccc1-2
    -0.7% | i | 9.5% | i | 1e-09
COc1ccc(-c2noc(CCCC(=O)O)n2)cc1
    2.8% | i | 1.0%[11.4 µM] | i | 1.2e-09
COc1ccc(NC(=O)C2CCCCN2CC(=O)OCc2ccccc2)cc1OC (centres undefined)
    2.0% | i | 0.3% | i | 1.1e-09
CCCOc1cccc(CN2CCCCC2c2cccnc2)c1 (centres undefined)
    / | i | / | i | 6.83e-08
Cn1c(=O)n2n(c1=O)[C@H]1[C@H](O)[C@H]3O[C@H]3C(=O)[C@H]1CC2
    -5.4%[11.5 µM] | / | -7.1%[11.4 µM] | / | /
O=c1c2c3c(sc2nc2n1CCCCC2)CCCCC3
    -3.0% | / | 1.7% | / | /
O=C(CN1C(=O)CSc2ccccc21)N1CCc2ccccc21
    -3.7% | i | 4.4% | i | 2.71e-08
Cc1cc(NC(=O)CCCSc2nc(-c3ccco3)cc(C(F)(F)F)n2)no1
    0.6% | i | ? | i | 3.03e-08
Cn1cccc1Cc1nnc(SCC(=O)Nc2ccc3c(c2)OCCO3)n1-c1ccc(F)cc1
    -3.0% | / | 1.7% | / | /
CC(C(=O)NC1CCCC1)N(C(=O)c1snc(C(N)=O)c1N)c1ccc2c(c1)OCCO2 (centres undefined)
    1.3% | i | 7.0% | i | 1e-09
Cc1ccc(S(=O)(=O)Nc2nc3ccc(S(=O)(=O)N4CCCC4)cc3s2)cc1
    0.0% | i | -16.9% | i | 5.9e-09
CCCn1c(=O)c2[nH]c(-c3ccc(OCC(=O)Nc4ccc(C#N)cc4)cc3)nc2n(CCC)c1=O
    -1.3% | i | 4.3% | i | 2.66e-08
CCOC(=O)c1c(-c2ccccc2)oc2ccc(O)c(CN3CCOCC3)c12
    -0.5% | i | ? | i | 1.18e-08
O=C(CSc1nnc(CNc2ccc(F)cc2)o1)N1CCCc2ccccc21
    -1.1% | i | -4.9% | i | 1e-09
O=[n+]1c2c(n([O-])c3c1CCC3)CCCC2
    -0.8% | i | 7.0% | i | 2.45e-08
Cc1cc(C(=O)NC(C)c2ccncc2)cs1 (centres undefined)
    -0.6% | i | -1.0% | i | 2.3e-09
CCc1nnc(NC(=O)CC(=O)Nc2ccccc2C(=O)O)s1
    -1.0% | i | -15.7% | i | 6.6e-09
CCCC(CCC)C(=O)O
    0.3%&-0.8%&-1.9% | i | ? | i | 3.14e-08
COc1ccc(C2CC(c3cccc(OC)c3OC)n3nnnc3N2)cc1 (centres undefined)
    -0.1% | i | 15.9% | i | 2.75e-08
CN(C)c1ccc(C(=C2C=CC(=[N+](C)C)C=C2)c2c(O)c(S(=O)(=O)O)cc3cc(S(=O)(=O)O)ccc23)cc1
    -0.3%[11.5 µM] | i | -5.6%[11.4 µM] | i | 1e-09
O=C(CN1C2=NCCN2c2ccccc21)c1ccc(Br)cc1
    -1.3% | i | 10.7% | i | 2.13e-08
COC(=O)C1(S(=O)(=O)c2ccc(C)cc2)CCOCC1
    1.3% | i | 11.2% | i | 1e-09
CC1CC(C)CN(C(=O)CSCC(=O)Nc2nc(-c3cccs3)cs2)C1 (centres undefined)
    2.7% | / | ? | / | /
CN(C)C(=O)N1CCC(C(=O)NCc2ccccc2Cl)CC1
    0.1% | i | -0.7% | i | 2.55e-08
Cc1csc(SCC(=O)NC(=O)NCc2ccccc2)n1
    0.4% | i | 1.3% | i | 1.2e-09
CCC(=O)N1CCc2cc(S(=O)(=O)NCCC(=O)N3CCc4ccccc4C3)ccc21
    1.7% | i | 9.0% | i | 4.36e-08
C=CCc1c(C)nc(SCCC)[nH]c1=O
    / | i | / | i | 2.2e-09
Cc1nc(SCC(=O)NCc2ccccc2)c2c(=O)n(C)c(=O)n(C)c2n1
    5.7% | / | -9.2% | / | /
CCCn1c(SCC(=O)Nc2nnc(CC)s2)nc2c1c(=O)n(C)c(=O)n2C
    -0.2% | i | 3.7% | i | 1e-09
Cc1cc(C(=O)Nc2nnc(C(F)(F)F)s2)no1
    2.5% | i | 7.7% | i | 2.93e-08
COc1cc(NC(=O)c2ccco2)c(OC)cc1NC(=O)CCC(=O)Nc1cccc(C)c1C
    -0.8% | i | -1.7% | i | 3.4e-09
COc1ccc(N(C)S(=O)(=O)c2cccc(C(=O)NC3=NCCS3)c2)cc1
    0.4% | i | 25.1µM* | i | 3.21e-08
CCN(CC)C(=O)CN1CCN(c2ncccn2)CC1
    1.9% | i | 2.8% | i | 1e-09
Cc1c(C(=O)Nc2ccc(N3CCOCC3)cc2)oc2ccccc12
    1.9% | i | ? | i | 1e-09
CCCCC1CC1C(=O)Nc1ccc(OC)c(OC)c1 (centres undefined)
    / | i | / | i | 4.11e-08
O=C1CC(c2ccccc2)CN1C(=O)c1ccccc1 (centres undefined)
    5.2% | / | -5.8%[11.4 µM] | / | /
COc1ccc(-c2nc3scc(-c4ccccc4)n3n2)cc1
    0.4% | i | 10.6% | i | 1.44e-08
O=C(COc1ccccc1Cl)NC(=O)NC1CCCC1
    -1.9% | i | -6.0% | i | 1.05e-08
O=C(Cn1c(=O)n(CC2CCCO2)c(=O)c2ccccc21)N1CCN(c2ccccc2)CC1 (centres undefined)
    -0.2% | i | 0.8%[11.4 µM] | i | 1.2e-09
S=C1SCN(Cc2ccccn2)CN1Cc1ccco1
    7.4% | i | 5.3% | i | 6.4e-09
C#CCOC(=O)[C@H](N)CC(N)=O
    -0.1%[11.5 µM] | i | -4.4%[11.4 µM] | i | 5.5e-09
NC(=O)CC12CC3CC(C1)CC(CC(N)=O)(C3)C2
    -0.7% | i | 3.1%[11.4 µM] | i | 2.55e-08
CC(C)CCNC(=O)NC(=O)CSc1nnc(-c2ccccc2F)n1N
    -0.8% | i | 7.3% | i | 2.74e-08
COc1ccc(OCCSc2nnnn2C2CCCCC2)cc1
    -1.1% | i | ? | i | 1e-09

# Other results follow:
# Each structure is followed by: AID923 | Resorufin fluor | TSHR ag | A488 autofl | A647 fluor
CCOC(=O)Cc1csc(NC(=O)CSc2nnc(-c3ccc(F)cc3)o2)n1
    1.2% | i | -2.2% | i | 3.32e-08
FC(F)Oc1cccc2cccnc12
    0.6% | i | 3.1%[11.4 µM] | i | 1e-09
O=C(CSc1nnc(CCc2nc3ccccc3[nH]2)n1-c1ccccc1)NCc1ccco1
    -0.9% | i | 2.0% | i | 2.52e-08
O=S(=O)(NCc1ccc2c(c1)OCO2)c1cnc[nH]1
    -0.2% | / | -0.1% | / | /
Cc1ccc(-c2nn(CC(=O)NCC3CCCO3)c(=O)c3ccccc23)cc1 (centres undefined)
    -1.8% | i | 13.9% | i | 1e-09
COc1ccc(Oc2ncc3nc(-c4cn(C)c5ccccc45)c(=O)n(C4CC4)c3n2)cc1
    14.4% | i | 7.2% | i | 5.3e-09
O=C(COc1ccccc1)N1CCN(S(=O)(=O)Cc2ccccc2)CC1
    6.7% | i | 3.2% | i | 2.7e-09
CCOC(=O)N1CC=C2C(C#N)=C(N)C(C#N)(C#N)[C@H](c3ccc(OC(C)C)c(OCC)c3)[C@H]2C1
    2.2% | i | 3.1% | i | 1e-09
CCOC(=O)C1CCN(C(=O)c2c(-c3c(F)cccc3Cl)noc2C)CC1
    -0.2% | i | 10.8% | i | 1e-09
O=C1CC(C(=O)NC2CCCCC2)C(c2ccccc2)O1 (centres undefined)
    -3.2% | i | 3.8% | i | 3.5e-08
CC1(c2ccncc2)Nc2ccccc2-c2nc3ccccc3n21 (centres undefined)
    4.3% | i | 25.1µM* | i | 1e-09
O=C(O)COc1nsnc1N1CCOCC1
    0.4% | i | 9.4% | i | 1e-09
COc1ccc(C2=NOC(CN3C(=O)c4ccccc4S3(=O)=O)C2)cc1 (centres undefined)
    -1.2% | i | 4.8% | i | 6.08e-08
C=C(C)CSc1nnc([C@H](CCSC)NC(=O)OC(C)(C)C)o1
    0.1% | i | 16.8% | i | 1e-09
CSc1nc2oc3c(c2c2nncn12)CC(C)(C)SC3
    8.5% | i | 4.8% | i | 1e-09
CCn1c(=NC(=O)CSC(C)=O)sc2cc(OC)ccc21
    1.2% | / | -1.0% | / | /
c1ccc(OCCSc2nc3ccccc3o2)cc1
    -1.4% | / | 11.2% | / | /
N#Cc1c(SCc2ccccc2)nc(N2CCOCC2)c2c1CCCC2
    0.5% | / | 15.8%[11.4 µM] | / | /
COC(=O)C1=C2N(Cc3ccccc3)C(C)=C(C(=O)OC)C(c3ccccc3)N2C(=O)[C@](O)(C(=O)OC)C1 (some centres undefined)
    0.7%&0.8%[11.5 µM] | / | ? | / | /
CC1CCC2C(=O)N3CCCC3C(=O)N2C1c1ccc(Br)cc1 (centres undefined)
    -1.2%&-1.5%[11.5 µM] | / | 6.4%&-2.9%[11.4 µM] | / | /

# Gathered by group: the entries above containing a tert-butyl group
# Each structure is followed by: AID923 | Resorufin fluor | TSHR ag | A488 autofl | A647 fluor
CC(C)(C)n1nc2c(c1NC(=O)c1ccc(S(=O)(=O)N3CCCC3)cc1)CS(=O)C2 (centres undefined)
    1.2% | i | 0.9% | i | 1.44e-08
C=C(C)CSc1nnc([C@H](CCSC)NC(=O)OC(C)(C)C)o1
    0.1% | i | 16.8% | i | 1e-09
